# Bioassay records as filed in PubChem.
# Sfp PPTase inh = blocks B. subtilis Sfp PPTase activity. Biochemical Sfp PPTase activity, qHTS. Potency, µM, without a hit: max response, negative = inhibition, hits mostly inhibitors. 310,000 compounds, 3.5% hits; active means well fitted inhibition curve with a large enough effect; inconclusive means small, poorly fitted or top-dose-only effect, or another doubt; inactive means no such curve, though single readings can be large or run the other way;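 further: the enzyme is Sfp with the accession as filed and its product quenches rhodamine fluorescence; potency means the concentration at half of the fitted maximal effect; 0% = enzyme reaction without inhibitor and -100% = no enzyme wells; top concentration of the series not given in the record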
#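 Fluorescence-quenching assay: 15 nM Sfp-PPTase preincubated 15 min at room temperature with compound, then 5 uM rhodamine-CoA and 12.5 uM BHQ-2-labelled YbbR peptide added. Fluorescence (ex 525/em 598 nm) read at start and after 30 min; difference gives rate.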
# TRPV1 PAM = enhances activation of the human vanilloid receptor TRPV1; Q8NER1; TRPV1-expressing cells, Fluo-8 calcium influx, capsaicin EC20 potentiation; host cell line not named in the record; control for the full effect not named in the record; potentiation, % at 8.33 µM; 320,000 compounds, 0.02% hits; AID 540277; active means potentiation above 80%; inconclusive means 30% to 80%; inactive means below 30%; further: 0% is about no effect
# Target sequence (Q8NER1 whole entry, looked up): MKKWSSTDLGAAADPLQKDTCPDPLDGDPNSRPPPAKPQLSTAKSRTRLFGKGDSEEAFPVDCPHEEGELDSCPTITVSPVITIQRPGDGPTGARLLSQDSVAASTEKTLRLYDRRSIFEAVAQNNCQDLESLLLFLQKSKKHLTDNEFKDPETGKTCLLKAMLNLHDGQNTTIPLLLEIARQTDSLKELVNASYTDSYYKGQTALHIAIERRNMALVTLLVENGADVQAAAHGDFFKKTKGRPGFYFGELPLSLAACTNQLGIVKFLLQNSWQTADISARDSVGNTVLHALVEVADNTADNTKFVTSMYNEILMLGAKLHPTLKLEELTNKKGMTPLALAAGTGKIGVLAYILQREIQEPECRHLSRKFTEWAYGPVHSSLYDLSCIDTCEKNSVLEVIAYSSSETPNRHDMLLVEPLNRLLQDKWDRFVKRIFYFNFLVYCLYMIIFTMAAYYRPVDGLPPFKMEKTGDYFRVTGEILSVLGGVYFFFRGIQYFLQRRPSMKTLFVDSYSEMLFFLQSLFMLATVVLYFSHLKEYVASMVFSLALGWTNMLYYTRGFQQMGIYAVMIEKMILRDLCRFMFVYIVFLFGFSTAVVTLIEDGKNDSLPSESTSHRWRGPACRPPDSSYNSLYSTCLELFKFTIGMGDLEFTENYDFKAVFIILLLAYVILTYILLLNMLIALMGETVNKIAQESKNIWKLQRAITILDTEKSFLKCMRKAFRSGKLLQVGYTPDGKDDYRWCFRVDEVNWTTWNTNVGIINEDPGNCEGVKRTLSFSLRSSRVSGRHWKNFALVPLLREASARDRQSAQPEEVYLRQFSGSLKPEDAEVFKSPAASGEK
#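 TRPV1-expressing cells were cultured overnight at 35.5C and loaded with Fluo-8 calcium dye for 40 to 90 min at room temperature. After a 10 s baseline, compound was added and calcium influx was read kinetically for 3 min (ex 480/em 520 nm).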
# CtBP-E1A inh = inhibitors of CtBP/E1A interaction | AlphaScreen GST-E1A/His-CtBP binding, 1536-well; active compounds read low; control for the full effect not named in the record | 340,000 compounds, 0.49% hits | AID 651724 | activity change, % (no concentration beside the values); in the data active means activity change below about -65%; inconclusive means about -30% to -65%; inactive means above about -30%; further: on the % scale 0 is the no-effect control and ±100 the full control effect
#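 Steps: dispense buffer (Tris pH 8.0, NaCl 300 mM, TCEP 1 mM, BSA, Tween 20); add 5X protein mix (GST-E1A, His-CtBP, 125 nM each); pin 23 nL compound; 2 h at 37 °C, dark; add 5X beads (50 ug/mL); 1 h; read.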
# Menin MLL FP FL = menin-MLL binding inhibition, fluorescein peptide. Fluorescence polarization, fluorescein-MLL peptide displacement from menin. FP activity change, % at 61.4 µM. 290,000 tested, under 10 active. AID 1766; inconclusive = falling polarisation curve, or a change in total fluorescence; inactive = total fluorescence flat and polarisation flat or rising; no compound was filed as active; the % refers to the polarisation; negative = inhibition;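 further: % of control where 0% means no effect; inhibitors lower the polarisation; unlabelled MLL peptide was the positive control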
# gsp ag = activates gsp, the McCune-Albright syndrome mutation. gsp mutant cells, cAMP HTRF, 30 min; control for the full effect not named in the record. Potency, µM (doses to about 76.9 µM), inactives show top-dose activation (cAMP increase), hits mostly activators. 340,000 compounds, 0.13% hits; active = well fitted activation curve with a large enough effect; inconclusive = small, poorly fitted or top-dose-only effect, or another doubt; inactive = no such curve, though single readings can be large or run the other way; cell line not stated here;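 further: phosphodiesterase inhibitor Ro 20-1724 added with compounds to block cAMP breakdown; potency means the concentration at half of the fitted maximal effect; nearly all actives have a fitted effect of over 60% in size; about a fifth of the inactives were tested at one dose only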
#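 Cells in DMEM/10% FBS with G418 were pretreated with compounds in DMSO plus […] (300 uM stock) for 30 min at 37C. cAMP was measured by HTRF (cAMP-d2 plus anti-cAMP antibody-K) after 30 min at room temperature.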
# gsp antag = gsp mutant antagonism; AID 624288; 340,000 compounds, 0.4% hits; Potency, µM (titrated, usually from 76.9 µM), without a hit: at the top dose activity change, negative = inhibition, most hits filed as inhibitors; gsp-mutant cells, cAMP HTRF, 30 min; control for the full effect not named in the record; active = falling curve of any shape with a large fitted effect; inconclusive = falling curve, mostly with a smaller effect; inactive = flat or rising curve; cell line not stated here;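 further: intracellular cAMP measured with PDE inhibitor Ro 20-1724 present during compound exposure; potency means the concentration at half of the fitted maximal effect; on the % scale 0 is the no-effect control and ±100 the full control effect; nearly all actives have a fitted effect of over 65% in size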
#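 HTRF cAMP read-out (cAMP-d2 plus anti-cAMP antibody-K in lysis buffer, 30 min RT). Before lysis, cells are exposed to compounds with […] for 30 min at 37C in DPBS containing Ca/Mg, BSA and Tween 20.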
# ClpP mod = qHTS Assay for Activators of ClpP; ATP-dependent Clp protease proteolytic subunit (Bacillus subtilis (strain 168)), P80244; purified B. subtilis ClpP, FRET peptide cleavage, 20 min; Potency, µM (top dose mostly 57.5 µM), for inactives: at the top dose activity change, negative = active; 340,000 compounds, 1.9% hits; AID 651965, 2013; active = well fitted falling curve with a large enough effect; inconclusive = small, poorly fitted or top-dose-only effect; inactive = no such curve, though single readings can be large or run the other way; further: potency means the concentration at half of the fitted maximal effect; the source files actives as falling curves though it sought activators and does not explain the sign; nearly all actives have a fitted effect of over 65% in size; many hits overshoot -100%
# Target sequence (P80244 whole entry, looked up): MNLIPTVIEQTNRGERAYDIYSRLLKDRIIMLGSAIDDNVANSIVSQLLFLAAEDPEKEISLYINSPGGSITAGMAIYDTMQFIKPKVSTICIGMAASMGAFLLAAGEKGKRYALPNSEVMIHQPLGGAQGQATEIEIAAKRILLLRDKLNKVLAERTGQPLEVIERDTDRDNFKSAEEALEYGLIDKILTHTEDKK
#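 Purified B. subtilis ClpP, 10 microg/mL final in Tris/HCl pH8 with KCl, BSA, glycerol and Tween-20, cleaved an Abz/nitrotyrosine-quenched decapeptide. Fluorescence (ex 320, em 430) was read at 0 and 20 min at room temperature. Delta was normalized to 5.8 microM ADEP and DMSO/no-enzyme controls.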
# * hit, by the source's call; ? = inconclusive; · = not tested or not shown; & = joins results of further samples; [ ] = another dose, or the depositor's remark.
SMILES,Sfp PPTase inh,TRPV1 PAM,CtBP-E1A inh,Menin MLL FP FL,gsp ag,gsp antag,ClpP mod
O=C(NCc1ccccn1)c1ccc(Cl)c(S(=O)(=O)NCc2ccccc2)c1,·,12,·,·,-3%,2%,-0.4%
CCOC(=O)c1ccc(NS(=O)(=O)c2ccc3oc(=O)[nH]c3c2)cc1,2%,9,-1,-8.1,19%,-7%,·
Cc1[nH]n(-c2ccc([N+](=O)[O-])cc2)c(=O)c1C=NCCN1CCN(C(=O)c2cccc(F)c2)CC1,17%,4,-10,1.6,19%,-13%,-0.7%
CCc1ccc2nc(-c3cccc(C)c3)nc(SCC(=O)NCC3CCCO3)c2c1 (stereo not given),6%,-9,-1,1.6,?,10%,-0.6%
C#CCOCCOCCOCCNc1nc(N2CCN(C(=O)Cn3cc(CC(C)O)nn3)CC2)nc(N2CCN(C(=O)[C@H](CCCCN)n3cc(CCC(=O)O)nn3)CC2)n1 (stereo not given in full),-4%,17,6,0.7,?,11%,1.1%
O=C(NCc1cn2ccsc2n1)c1cccc(C(F)(F)F)c1,10%,-2,-2,3.1,-14%,8%,0.1%
CCS(=O)(=O)Nc1c(C)n(C)n(-c2ccccc2)c1=O,8%,-9,7,2.4,-15%,7%,0.1%
CCOC(=O)c1[nH]c(C)c(C(=O)NC2CCCCCC2)c1C,-4%,-16,0,-1.9,1%,32%[activator],0.8%
Cc1ccc(N(CC(=O)Nc2ccc(S(=O)(=O)N3CCOCC3)cc2)S(C)(=O)=O)cc1C,3%,-9,0,3.8,-18%,-9%,1.8%
COc1cccc(CN(C)CC(=O)Nc2cccc(C(F)(F)F)c2)c1OC,15%,-14,-2,-1.4,12%[15.4 µM],?,·
CCOC(=O)CSc1nnc(CSc2nc3ccccc3c(=O)[nH]2)n1-c1ccccc1,3%,-3,-13,0.6,-78%[inhibitor],-2%[15.4 µM],-5.1%
CNC(=O)CSc1nnc(-c2ccccc2F)n1CCc1ccccc1,-5%,-23,·,-5.0,10%,-1%,0.2%
Cc1noc(C)c1CSCc1ccc(Cl)cc1,-2%,1,1,-1.6,-17%,-2%,·
CC(C)c1ccc(C(N)=S)cc1,1%,-1,·,5.7,-24%,6%,0.6%
COc1ccc(CNC(=O)COC(=O)/C=C/c2ccc(S(=O)(=O)N3CCOCC3)cc2)cc1,16%,-2,-28,1.2,0%,-10%,·
COc1ccccc1NC(=O)Nc1nnc(C(C)c2ccccc2)s1 (stereo not given),11%,26,-13,-0.4,8%,-5%,-2.6%
Cc1ccc(NC(=O)C2CCN(S(=O)(=O)c3ccc4c(c3)OCCO4)CC2)c(O)c1,·,-7,0,·,-5%[15.4 µM],-13%,-0.9%
CC(C)(S)[C@@H](N)C(=O)O,50µM*,4,-19,-5.3&-4.9,·,0%,2.3%
CN(CCc1ccccc1)C(=O)c1ccc(NC(=O)Cc2ccc(NC(=O)C3CCCN(C(=O)c4ccccc4)C3)cc2)cc1 (stereo not given),·,·,2,·,·,3%,0.5%
CCN(CC)c1ccc(NC(=O)CNCc2ccccc2Cl)c(C)c1,-22%,-2,?,1.1,17%,-4%,-3.4%
COC(=O)c1ccc2c(c1)C(C)(C)C(/C=C/c1ccccc1O)=[N+]2C,11µM*,-6,-6,8.4,?,16%,-13%
COc1cc(C(=O)NCC(C)(C)CNC(=O)c2cc(OC)c(OC)c(OC)c2)cc(OC)c1OC,12%,27,-1,-0.1,15%,-4%,-1.7%
CCN(C(=O)c1cccc(NC(=O)c2ccccc2)c1)C1CCCCC1,0%,-12,-3,-4.1,?,-9%,-0.5%
COc1ccc(CCN2C(=O)C3C4CC(C5C(C(=O)O)=NOC45)C3C2=O)cc1OC (stereo not given),9%,15,-2,1.1,16%,-13%,-2.0%
CCc1nnc(NC(=O)c2ccc3ccccc3n2)s1,?,17,-15,3.3,-15%,-1%,-2.9%
# Other structures:
SMILES,Sfp PPTase inh,TRPV1 PAM,CtBP-E1A inh,Menin MLL FP FL,gsp ag,gsp antag,ClpP mod
Cc1ccc(S(=O)(=O)NCC(=O)NCC(=O)N(C)Cc2ccc(Br)s2)cc1C,·,·,2,·,-23%,·,-1.0%
O=C(COC(=O)c1ccco1)Nc1cc(S(=O)(=O)N2CCCCC2)ccc1Cl,·,·,3,·,19%,2%,2.0%
CCCn1c(SCC(=O)Nc2nc(C)cs2)nnc1-c1cccnc1,16%,-4,-6,-0.5,-1%,2%,-2.8%
O=c1cc(CSc2nnnn2-c2ccccc2)nc2nc[nH]n12,-3%,?,-2,-7.5,15%,11%,0.8%
CCN1CCN(C(=O)C(C)N(c2ccc(C)cc2)S(C)(=O)=O)CC1 (stereo not given),23%,19,1,-2.0,8%,8%,1.9%
CN1C(=O)NC2(O)C(=O)c3ccccc3C12O (stereo not given),6%,13,-1,0.5,8%,0%,-3.3%
CCOc1ccc2[nH]c(=O)c(CN(Cc3ccco3)Cc3nnnn3Cc3ccccc3)cc2c1,2%,4,0,0.7,?,-14%,?
NC(=O)c1ccc(-c2nnn(CC(=O)N(C3CCCC3)C3CCS(=O)(=O)C3)n2)cc1 (stereo not given),·,-12,-1,·,-20%,9%,-0.6%
CC(C)NC(=O)N(C)C[C@H]1Oc2c(NC(=O)C3CCCCC3)cccc2C(=O)N([C@H](C)CO)C[C@@H]1C,·,·,3,·,·,-2%,-2.8%
O=C(CCCc1ccccc1)NCCc1ccccc1,6%,-14,·,0.3,-1%,3%,0.5%
CCCN(CC(=O)Nc1ccccc1OC)C(=O)c1cc(-c2ccccc2)nn1-c1ccccc1,·,1,-5,·,-5%,?,-1.8%
COc1ccc(-c2nc3c(c(SCC(=O)Nc4cccc(O)c4)n2)Cc2c(CO)cnc(C)c2O3)cc1,-7%,-1,·,?,-4%,?,-5.0%&-6.5%
CN(C)c1ccc(NC(=O)CSc2n[nH]c(-c3ccco3)n2)cc1,-5%,-3,-1,2.4,-1%[15.4 µM],-11%,0.7%
CCCCN(C(=O)c1cccc(S(=O)(=O)N(CC)c2ccccc2)c1)c1c(N)n(CC(C)C)c(=O)[nH]c1=O,·,·,4,·,-31%[inhibitor],-4%,1.9%
Cc1cccc2c(=O)n3c(cc12)-c1[nH]c2ccccc2c1CC3,·,·,10,·,6%,-24%,14µM*
Cc1c(C(=O)NC2CCCCC2)oc2c1C(=O)CC(C)(C)C2,-9%,-22,9,-2.9,-20%,-1%,-1.4%
CCc1ccc(N2CCN(C(=O)N3CCOCC3)CC2)cc1,10%,-5,·,-7.8,-6%[15.4 µM],13%,·
CC(C)OC(=O)/C(=C\c1ccccc1)NC(=O)c1ccccc1,16%,-12,·,-6.2,-6%,3%,-1.1%
CSc1cccc(N2CC(C(=O)Nc3cccc(S(=O)(=O)N4CCCC4)c3)CC2=O)c1 (stereo not given),·,11,2,·,0%[15.4 µM],-19%,-15%
CC(Sc1ccc(S(=O)(=O)N2CCN(C)CC2)cn1)C(=O)NC1(C#N)CCCCC1 (stereo not given),·,10,1,·,-9%,-3%,-0.2%
CC(=O)N1CCN(S(=O)(=O)c2ccc(C)cc2)C1C (stereo not given),·,3,13,·,10%[15.4 µM],6%,1.2%
Cc1ccc(-c2nn(-c3ccccc3)cc2C(=O)Nc2ccc(C)c(S(=O)(=O)N3CCOCC3)c2)cc1,14%,3,-10,3.2,-6%,6%,?
CC(=O)Nc1ccc(NC(=O)C2CCCN2C(=O)NCc2ccccc2)cc1 (stereo not given),9%,-13,6,3.3,-6%,7%,·
COc1ccc(-n2c(CNC(=O)c3ccc(S(=O)(=O)N4CCCC4)cc3)n[nH]c2=S)cc1,-2%,-8,2,-3.0,4%,0%,-2.1%
CCCCC1(O)CC(C(F)(F)F)=NN1C(=O)COc1ccccc1 (stereo not given),-5%,-10,2,4.2,0%,-15%,-1.9%
# Next records
SMILES,Sfp PPTase inh,TRPV1 PAM,CtBP-E1A inh,Menin MLL FP FL,gsp ag,gsp antag,ClpP mod
COc1ccc(Cn2ccnc2SCC(=O)Nc2ccc(F)cc2F)cc1,·,·,-8,·,-30%,·,0.0%
O=C(O)C1C2CC3OC(=O)C1C3C2 (stereo not given),·,·,9,·,-22%,10%,·
O=C(O)c1cccc(N2CCCC2)c1,13%,-4,5,8.6,0%,-18%,28µM*
CCOc1ccc(NC(=O)CN2CCN(c3ccc(F)cc3)CC2)cc1S(=O)(=O)N1CCCC1,·,·,-7,·,-68%[inhibitor],·,-3.3%
C/C=C/C(=O)N1CC2(CC(c3cccc(NC(=O)CCCCC)c3)=NO2)C[C@H]1C(N)=O (stereo not given in full),14%,?,·,-1.5,·,·,·
CC(C)c1ccc(-c2nnn(CCC(=O)O)n2)cc1,20%,19,-22,1.8,3%,?,-15%
CCOc1ccc(S(=O)(=O)N(CC(=O)O)c2ccc(C)cc2)cc1,24%,·,6,1.8,3%,-8%,-0.5%
O=S(=O)(NC1c2cccc3cccc(c23)C1Sc1ncccn1)c1ccc(Cl)cc1 (stereo not given),4%,0,1,3.0,11%,0%,-2.3%
O=C(CCNC(=O)c1ccc(Br)cc1)Nc1ccccc1N1CCCCC1,·,-8,2,·,7%[15.4 µM],-19%,·
C/C(Cn1nnc([N+](=O)[O-])n1)=N\NC(=O)c1ccc(Cl)c(Cl)c1,-3%,3,14,0.7,-25%,11%,0.8%
O=C(CCCCC(=O)OC1CCCCC1)OC1CCCCC1,·,·,4,·,19%,4%,·
O=C(Cc1c(C(=O)O)[nH]c2ccccc12)NCCN1CCN(c2cccc(Cl)c2)CC1,13%,14,0,0.4,-38%[inhibitor],6%,-12%
CCOc1ccc(NC(=O)CCCNC(=O)Cn2cnc3sc(C)c(C)c3c2=O)cc1,8%,-7,-12,-1.3,8%[15.4 µM],11%,·
O=C(CCC1CCCCC1)Nc1cccnc1,19%,3,44,0.0,-1%,29%,0.0%
O=C1CC(=O)Nc2cc(S(=O)(=O)NCc3cccs3)ccc2N1,19%,27,5,·,?,14%,0.9%
